Compound activity deposited in PubChem by National Center for Advancing Translational Sciences (NCATS).
VDR inhibitor – vitamin D3 receptor (human) inhibition. P11473. VDR-SRC2-3 peptide fluorescence polarization, 2 h. Potency, µM, without a hit: max response, negative = inhibition, hits mostly inhibitors. hit rate 0.93% among 400,000. AID 504847; active = well fitted inhibition curve with a large enough effect; inconclusive = small, poorly fitted or top-dose-only effect, or another doubt; inactive = no such curve, though single readings can be large or run the other way; note: series mostly up to about 120 µM
Target sequence (P11473 whole entry, looked up): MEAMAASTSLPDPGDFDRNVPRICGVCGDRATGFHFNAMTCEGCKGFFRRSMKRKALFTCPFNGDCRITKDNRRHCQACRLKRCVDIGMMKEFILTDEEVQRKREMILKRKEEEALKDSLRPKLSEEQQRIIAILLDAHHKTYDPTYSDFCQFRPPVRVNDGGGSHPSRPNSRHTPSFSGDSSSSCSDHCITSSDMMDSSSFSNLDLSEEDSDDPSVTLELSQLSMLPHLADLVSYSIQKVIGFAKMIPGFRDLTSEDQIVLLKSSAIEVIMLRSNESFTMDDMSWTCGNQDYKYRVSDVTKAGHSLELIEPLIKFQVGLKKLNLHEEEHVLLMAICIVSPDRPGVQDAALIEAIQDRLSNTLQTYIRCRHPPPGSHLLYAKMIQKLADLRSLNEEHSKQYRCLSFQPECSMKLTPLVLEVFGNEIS
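Two reagent solutions held at 4 deg C in the dark were dispensed, compounds pinned at 23 nl, and the mixture incubated 2 h at room temperature. Read-out: fluorescence polarization of VDR–SRC2-3 peptide binding.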
An asterisk follows results filed as active; ? = inconclusive; & = joins results of further samples; [ ] = another dose, or the depositor's remark. % is set by controls: 0 for no effect and ±100 for the full control effect; potency is the fitted concentration of half-maximal effect.

| molecule | VDR inhibitor |
| --- | --- |
| CN1CCN(c2ncc3ncc(=O)n(Cc4ccc(F)cc4)c3n2)CC1 | -6.6% |
| O=C(c1cc(COc2c(F)cccc2F)on1)N(Cc1ccccc1)CC1CC1 | -13.4% |
| CN(C(=O)c1ccc(Cl)cc1)C1=CCCCC1CCC#N (stereo not given) | 2.1% |
| COC(=O)Cc1c(C)c2ccc(OCC(=O)N3CCCC3)c(C)c2oc1=O | 0.2% |
| CCC(C)(C)NC(=O)CN(C(=O)c1snc(C(N)=O)c1N)c1ccc2c(c1)OCCO2 | 1.9% |
| CCCNC(=O)C1CCN(c2cc(C)nc3c(-c4ccc(OC)c(OC)c4)c(C)nn23)CC1 | -7.4% |
| COc1ccc(CCNC(=O)C2COc3ccccc3C2)cc1OC (stereo not given) | 12.7% |
| CCOC(=O)Cc1c(C)c2c(C)[nH]nc2oc1=O | 22.6% |
| CCOC(=O)C1C(=O)C(=O)N(C2CCCCC2)C1C(=O)OCC (stereo not given) | -1.4% |
| CC(=O)c1ccc(S(=O)(=O)N2CCCC(N(C)CCc3ccccc3)C2)cc1 (stereo not given) | 9.4% |
| CCOc1cccc(C(=O)NC(=S)Nc2ccccc2)c1 | -10.1% |
| COc1ccc(-c2csc(N3CCC(c4ccccc4)CC3)n2)cc1 | 0.9% |
| CC1(C)Cc2c(C#N)c(N)n(-c3ccccc3)c(=O)c2CO1 | 1.6% |
| O=C(CSc1nnc(Cc2ccccc2)n1-c1cccc(Cl)c1)NNC(=O)Cc1ccccc1 | -2.3% |
| CN(C)c1nnnn1-c1ccccc1Oc1ncc(C(F)(F)F)cc1Cl | -6.8% |
| CN(C(=O)c1ccccc1)c1nccnc1C#N | -26.2% |
| COc1ccc(N(CCOc2ccccc2)S(=O)(=O)c2ccccc2)cc1 | -6.3% |
| CCn1cc(S(=O)(=O)Nc2cc(C)ccc2F)cn1 | 0.9% |
| Cc1ccc(NS(=O)(=O)c2cc3c4c(cccc4c2)C(=O)NC3=O)cc1C | 14.5% |
| CN1CCN(NC(=O)CN(C)S(=O)(=O)c2cc(Cl)ccc2Cl)CC1 | -5.2% |
| Cc1ccc2nc(C3CCCN(C(=S)Nc4cccc(C)c4C)C3)[nH]c2c1 (stereo not given) | -4.9% |
| COc1ccc([C@H]2CC(=O)C=C(c3ccc4c(c3)OCO4)C2)cc1OC | -19.9% |
| O=C(NCc1cccnc1)c1ccccn1 | 6.3% |
| Cc1oc2cc3oc(=O)c(CCC(=O)NCCCC(=O)O)c(C)c3cc2c1C | -14.1% |
| CN(C(=O)CO/N=C/c1ccc(Cl)cc1)c1ccccc1 | -5.0% |

Molecules listed so far containing a cyano group, in the order listed:
| molecule | VDR inhibitor |
| --- | --- |
| CN(C(=O)c1ccc(Cl)cc1)C1=CCCCC1CCC#N (stereo not given) | 2.1% |
| CC1(C)Cc2c(C#N)c(N)n(-c3ccccc3)c(=O)c2CO1 | 1.6% |
| CN(C(=O)c1ccccc1)c1nccnc1C#N | -26.2% |

(list continues)
| molecule | VDR inhibitor |
| --- | --- |
| CCc1cccc(C)c1NC(=O)c1ccc(CN2CCc3ccccc3C2)cc1 | 3.2% |
| Cn1c(-c2ccc(N)cc2)nc2ccccc21 | 2.0%&-16.7% |
| CC(C)NC(=O)NC(=O)CSc1nnc(COc2ccccc2Cl)o1 | 15.0% |
| N#CCSc1nnc(COc2cccc3ccccc23)n1-c1ccccc1 | -11.6% |
| CC(C)NC(=O)c1ccc(S(=O)(=O)N(C)C)cc1 | 11.9% |
| CCOC(=O)C1(CCCc2ccccc2)CCN(C(=O)c2cnn(CC)c2)CC1 | -6.3% |
| C[C@@H]1CCC2[C@](C)(CO)C(O)CC[C@@]2(C)[C@@]12CC[C@](CO)(CCO)O2 (stereo not given in full) | 9.4% |
| CC1=C(C(N)=O)C(c2ccc(F)cc2)n2nc(-c3ccccc3Cl)nc2N1 (stereo not given) | -7.3% |
| CC1CCCN(CC(O)COCc2ccccc2)C1 (stereo not given) | 38.3%[activator] |
| CC(C)C(=O)Nc1nc2cc3c(cc2s1)OCO3 | -13.0% |
| Cc1ccc(CNC(=O)CN(c2cc(C)cc(C)c2)S(=O)(=O)c2c(C)noc2C)cc1 | -16.9% |
| CC(C)(C)NC(=O)CSC(=Nc1ccccc1F)NC#N | 1.0% |
| O=C(CNC(=O)c1ccc(Cl)cc1Cl)OCCOc1ccccc1F | -10.5% |
| Cc1ccc(NC(=O)[C@H](CC(C)C)NC(=O)[C@@H]2Cc3ccccc3CN2)cc1 | 13.3% |
| COc1ccc(CC(=O)N2CC(=O)Nc3ccc(Br)cc3C2c2ccc(F)cc2)cc1OC (stereo not given) | -10.6% |
| CCC(C(=O)NC1CCC(C)CC1)n1nc(C)c2sc3ccccc3c2c1=O (stereo not given) | 21.3% |
| O=C(Cn1c(=O)oc2ccccc21)N1CCOCC1 | -13.7% |
| Cc1ccc(CNC(=O)Cn2c(=O)n(-c3ccccc3)c(=O)c3c2c2cc(C)ccc2n3C)cc1 | 4.6% |
| CCNc1ncc2nc(-c3cccs3)c(=O)n(CCc3ccccc3)c2n1 | 0.4% |
| O=C(CSc1oc(-c2ccco2)nc1S(=O)(=O)c1ccc(Br)cc1)c1ccc(Cl)cc1 | 16.3% |
| O=C(C1CCCN(S(=O)(=O)c2ccc(Cl)cc2)C1)N(Cc1cccs1)C1CC1 (stereo not given) | -16.2% |
| NS(=O)(=O)c1ccc(CCNC(=O)c2ccccc2-c2ccccc2)cc1 | -11.2% |
| Cc1ccc(/C=C/C(=O)N2CCc3ccccc32)o1 | ? |
| CCOc1ccc(-n2cc(C(=O)Nc3cccc(Cl)c3)c3cc(OC)c(OC)cc3c2=O)cc1 | 9.2% |
| CCOC(=O)N1CCC(NC(=O)C2CCN(S(=O)(=O)c3cccc4cccnc34)CC2)CC1 | 3.2% |

The results go on.
| molecule | VDR inhibitor |
| --- | --- |
| CC(C)CN1CCC2(CC1)CCN(C(=O)c1cnccn1)CC2 | 1.2% |
| COc1ccc(S(=O)(=O)NCc2nc(-c3ccccc3)no2)cc1 | 18.3% |
| CNc1ccccc1C(=O)N1CCc2c([nH]c3ccccc23)C1=O | -6.0% |
| Cc1cccc(CCNC(=O)CCc2c(C)nc3ncnn3c2C)c1 | -14.6%&-4.5% |
| Cc1cc(NC(=O)c2ccc(C)o2)no1 | -12.9% |
| NC(=O)c1nsc(C(=O)N(c2ccccc2)C(C(=O)NCC2CCCO2)c2ccc(F)cc2)c1N (stereo not given) | 11.3% |
| COC(=O)c1cccnc1SCc1ccccc1 | -5.5% |
| Cc1ccc(NC(=O)C2CCCN(S(=O)(=O)c3ccc4c(c3)CCCC(=O)N4)C2)cc1Cl (stereo not given) | 13.9% |
| O=C(COc1nncc2ccccc12)NCC(F)(F)F | 12.7% |
| CC(C)c1ccc(NC(=S)N2CCCC2)cc1 | 1.1% |
| O=C(c1cc(C(F)(F)F)cc(C(F)(F)F)c1)N1CCC2(CCCN(Cc3ccccc3)C2)CC1 | -23.0% |
| O=C(Nc1nc2n(n1)C(c1ccc(F)cc1)C=C(c1ccccc1)N2)c1ccc(Cl)cc1 (stereo not given) | 9.6% |
| Fc1ccc(C(c2nnc(-c3ccccc3)o2)N2CCN(c3ccccc3)CC2)c(Cl)c1 (stereo not given) | 4.4% |
| c1ccc(CSc2ncn(-c3ccccc3)n2)cc1 | 2.7% |
| CCN(CC)CCN1CNC(=S)N(c2ccccc2OC)C1 | 13.2% |
| COc1cc(C(=O)Nc2ccc(S(=O)(=O)NC(C)(C)C)cc2)cc(OC)c1OC | 13.1% |
| COc1cc(-c2noc(CCC(=O)Nc3cc(C)ccc3C)n2)cc(OC)c1OC | 16.6% |
| FC(F)Oc1ccc(NC(=S)N2CCc3ccccc32)cc1 | -9.1% |
| O=c1c2ccccc2nc(-c2ccc(Cl)cc2)n1CCCOc1ccccc1F | -5.9% |
| Clc1ccc(SCc2cc(-c3ccc(Cl)cc3)on2)cc1 | -8.6% |
| O=C(CCCCCN1C(=O)c2cccc3cccc(c23)C1=O)N1CCOCC1 | -14.8% |
| O=C(NC12CC3CC(CC(C3)C1)C2)N1CCN(c2ncccn2)CC1 | -11.0% |
| CCCNC(=O)CCNC(=O)c1ccc(C(C)(C)C)cc1 | 7.4% |
| CC1=Nc2cccc3cccc(c23)N1C | -8.8% |
| CCc1ccc(OCC(=O)NC(=S)Nc2ccc(C(=O)O)cc2)cc1 | -25.9% |

Carrying on.
| molecule | VDR inhibitor |
| --- | --- |
| CCCOc1ccc(C2C(=O)N(C3CCCCC3)CC(=O)N2CCC)cc1OC (stereo not given) | -11.2% |
| CCCCS(=O)CC(CS(=O)CCCC)OC(=O)c1ccc(C)cc1 (stereo not given) | -7.4% |
| O=C(Cc1cccs1)N(Cc1ccco1)C1(C(=O)NC2CCCC2)CCCCC1 | 7.5% |
| Cc1cccc(Oc2ccccc2NC(=O)c2cnccn2)c1 | 1.5% |
| COc1ccc(/C=C2\SC(=S)N(CCCC(=O)Nc3ccccn3)C2=O)cc1OC | -5.6% |
| CCOc1cc(N2CCOCC2)c(OCC)cc1NC(=O)Cn1[nH]c(=O)c2ccccc2c1=O | -10.8% |
| CCC1(C)SC(NC(C)=O)=NN1C(C)=O (stereo not given) | 0.3% |
| CCc1ccc(N2CC(C(=O)NNC(=O)c3ccc(F)cc3)CC2=O)cc1 (stereo not given) | 9.7% |
| Cc1cccc(-c2nc(C(N)=O)c3c(n2)n(-c2ccc4c(c2)OCO4)c(=O)n3C)c1 | -14.1% |
| COc1ccc2cc(C(C)C(=O)O)ccc2c1 (stereo not given) | -9.5%&5.1% |
| CN(C(=O)Nc1ccc(Cl)cc1)c1c2c(nn1C)CCCC2 | 5.0% |
| Cc1cc(C)n(-c2ccc(C(=O)OCC(=O)N(CC(C)C)C3CCS(=O)(=O)C3)cc2)n1 (stereo not given) | 5.8% |
| O=S(=O)(NCC1CCCO1)c1ccc2oc3ccc(S(=O)(=O)NCC4CCCO4)cc3c2c1 (stereo not given) | 0.7% |
| O=C(CCS(=O)(=O)c1ccccc1)Nc1nc2c(s1)CCCC2 | 0.7% |
| O=C(Nc1ccc(C(=O)O)cc1)/C(=C\c1ccccc1)NC(=O)c1ccc(Br)cc1 | -0.7% |
| CC(C)(C)OC(=O)NCCC(=O)N/N=C/c1cccc2nccnc12 | -22.5% |
| NC(=O)C1CCN(C(=O)c2ccccc2NC(=O)c2nsc3ccccc23)CC1 | 11.8% |
| COc1ccccc1CNC(=O)COCc1cc(-c2ccc3c(c2)OCO3)on1 | 14.0% |
| COc1cc(C(=O)Nc2ccc(Oc3ncnc4sc(-c5ccccc5)cc34)cc2)cc(OC)c1OC | 7.3% |
| COc1ccc(-c2nc3cnccn3c2NC(C)(C)CC(C)(C)C)cc1O | -11.2% |
| N#C/C(=N/Nc1ccccc1[N+](=O)[O-])C(N)=S | ? |
| COc1cc(/C=C2\SC(=S)N(CCCCC(=O)O)C2=O)ccc1OS(=O)(=O)c1ccc(C)cc1 | ? |
| COc1ccc(OCC(=O)Nc2ccccc2C(=O)OCc2cc(=O)n3nc(C)sc3n2)cc1 | 12.0% |
| CC(C)CN(C(=O)C1CCCCC1)C1CCS(=O)(=O)C1 (stereo not given) | ? |
| COc1ccc(C(C)(C)C)cc1NC(=O)C1C2C=CC(C2)C1C(=O)O (stereo not given) | -8.0% |

Next part
| molecule | VDR inhibitor |
| --- | --- |
| CC(=O)c1cc(C#N)c(N2CCN(c3ccccc3)CC2)nc1C | 22.1% |
| COc1ccc(C(=O)Nc2cc(Cl)cc(Cl)c2)c(OC)n1 | 13.1% |
| O=c1[nH]c(C2CCCN(S(=O)(=O)c3cccc(Cl)c3)C2)nc2c1nnn2Cc1ccc2c(c1)OCCO2 (stereo not given) | 7.8% |
| COc1ccccc1C(=O)Nc1ccc(S(=O)(=O)N2CCCC2)cc1 | 11.8% |
| C=CCn1c(SC(C)C(=O)NCc2ccc3c(c2)OCO3)nc2scc(-c3ccccc3)c2c1=O (stereo not given) | 1.4% |
| Oc1ccc(Nc2nc(-c3ccc(O)cc3)cs2)cc1 | -2.9% |
| COc1cc(C(=O)OCC(=O)NCc2ccco2)cc(OC)c1OC | -11.3% |
| CCOc1ncccc1C(=O)OCC(=O)Nc1ccc(C(N)=O)cc1 | -4.8% |
| N#C/C(=C/c1cn(Cc2ccc(F)cc2)c2ccccc12)C(=O)Nc1cccc(Cl)c1 | -18.6% |
| CC1=C(/C=N/Nc2ccc([N+](=O)[O-])cc2[N+](=O)[O-])C(C)(C)CCC1 | -8.7% |
| COc1ccc(CCNC(=O)Cn2nnc(-c3ccc(OC)c(OC)c3)n2)cc1OC | -3.9% |
| COc1ccc(N(Cc2cccs2)C(=O)COc2cc(C)c(Cl)c(C)c2)cc1 | 4.0% |
| CC(C)[C@H](NC(=O)c1ccc(Cl)cc1Cl)C(=O)OCc1nc2ccsc2c(=O)[nH]1 | 16.0% |
| COC(=O)CSc1cc(SCC(=O)OC)c(C#N)c(SCC(=O)OC)c1 | 0.6% |
| Cc1occc1-c1nnc(SCC(=O)Nc2nccs2)n1Cc1ccco1 | -18.5% |
| NC(=O)c1cc2ccccc2o/c1=N\NC(=O)c1ccncc1 | -5.1% |
| COc1cccc(C(=O)N2CCC(CCC(=O)Nc3cccc(C)c3)CC2)c1 | 9.9% |
| CCOC(=O)C1CC(=O)c2cc(OC)c(OC)cc2C1 (stereo not given) | 7.7% |
| N#CCc1c(C#N)c(N)nc(N2CCCC(O)C2)c1C#N (stereo not given) | -8.3% |
| CSc1nsc(SCC(=O)Nc2cc(C(=O)O)ccc2C)n1 | -23.7% |
| O=C(NCc1ccncc1)c1ccc(Br)o1 | -15.5% |
| COc1ccccc1NC(=O)C(=O)NCC(c1cccnc1)N1CCc2ccccc2C1 (stereo not given) | 4.1% |
| CCOc1ccc(N2CC(C(=O)Nc3c(C)n(C)n(-c4ccccc4)c3=O)CC2=O)cc1 (stereo not given) | -10.8% |
| COCCCn1c(=O)cc(C)[nH]c1=S | 0.6% |

This is a subset, so the mix of outcomes need not match the whole.
